Prx2 Sm inh: inhibitors of Schistosoma mansoni peroxiredoxin 2. S. mansoni Prx2 activity coupled to TGR/GSH (TGR is thioredoxin glutathione reductase), NADPH fluorescence loss, qHTS; some inactives read as strong as hits. Potency, µM. 0.07% of 65,000 active; active means full or partial inhibition curve with a strong effect at the top dose; inconclusive means weaker partial or single-point curve; inactive means no accepted curve; also: series up to 57 µM; many of its hits are not listed in these tables
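Coupled assay in which S. mansoni TGR passes NADPH reducing equivalents via glutathione to Prx2, which reduces H2O2. Compounds were preincubated 15 min at room temperature with 25 nM TGR/50 nM Prx2 mix. Kinetic NADPH fluorescence loss (ex 365/em 450 nm) was monitored.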
LT uptake inh: anthrax lethal toxin internalization inhibition; Cells, anthrax lethal toxin internalization, FRET ratio (460/530); Potency, µM (doses to about 40 µM), inactives show at the top dose activity change, negative = inhibition, usual class: inhibitors; 0.67% of 70,000 active; AID 912; active = well fitted falling ratio curve with the 530 nm signal flat; inconclusive = other ratio curves, or a change in one channel alone; inactive = flat curves in the ratio and both channels; the % refers to the ratio; also: % is scaled to controls: 0 for no effect and ±100 for the full control effect; nearly all actives have a fitted effect of over 50% in size; tested in ME-180 cells; beta-lactamase reporter
Active calls of the source: *; ? = inconclusive; . = no result given. Potency is read from the fitted curve at half-maximal effect. The list is partial (hit frequency here may not be typical).

Structure	Prx2 Sm inh	LT uptake inh
CN(C)c1ccc(CN2CCCC(O)C2)cc1 (configuration not stated)	>57	-15%
OCCNCC(O)Cn1ccc2ccccc21 (configuration not stated)	>57	?
CC(=O)N1CCN(CCN=CC2=C(O)CC(c3ccc(Cl)cc3)CC2=O)CC1 (configuration not stated)	.	-7%
CC(=O)Nc1ccccc1C	.	2%
CSc1nc(-c2ccco2)nn1C(=O)c1cccs1	>57	9%
Cc1cc(=O)n2nc(N3CCCC(C(=O)NCCc4ccccc4)C3)sc2n1 (configuration not stated)	>57	-13%
Cc1ccc2oc(=O)c3cnn(CC(=O)N4CCCCC4C)c3c2c1 (configuration not stated)	>57	?
CCOC(=O)C1CCCN(C(=O)c2cc(Nc3ccc(OC)c(OC)c3)nc3ccccc23)C1 (configuration not stated)	>57	-12%
O=c1c2ccccc2nnn1Cc1ccccn1	>57	?
O=C(CCC(=O)N1CCCC1)Nc1nnc(C(F)(F)F)s1	>57	14%
CCOC(=O)N1CCN(C(=O)CSc2nc3c(cnn3-c3ccc(C)cc3)c(=O)[nH]2)CC1	>57	8%
COC(=O)c1cccc(S(=O)(=O)N2CCC(n3nnc4cc(F)ccc43)CC2)c1	>57	-6%
CCCCn1c(CN2CCN(C(=O)c3ccco3)CC2)nc2c1c(=O)n(C)c(=O)n2C	>57	12%
O=c1c2[nH]c3ccc(F)cc3c2ncn1CCCn1ccnc1	>57	-6%
COc1cccc(NC(=O)c2cccnc2)c1	>57	-4%
O=C(NC(Cc1ccc(F)cc1)C(=O)O)c1ccccc1 (configuration not stated)	>57	.
CCc1ccc(CC)c(S(=O)(=O)Nc2ccc(O)c(C(=O)O)c2)c1	>57	-24%
COc1nnc(-c2ccc(N3CCOCC3)c(NC(=O)c3ccco3)c2)c2ccccc12	>57	6%
O=C(/C=C\c1ccc(O)c(O)c1)OCCc1ccccc1	>57	?
Cc1nnc(NC(=O)c2cc3n(n2)C(C(F)(F)F)CC(C2CC2)N3)s1 (configuration not stated)	>57	-1%
COCCn1c(=O)c(-c2cn(C)c3ccccc23)nc2cncnc21	>57	?
O=C(Nc1ccncc1)Nc1ccccn1	>57	-16%
Cc1c(NS(=O)(=O)c2ccc3c(c2)c(=O)n(C)c(=O)n3C)c(=O)n(-c2ccccc2)n1C	>57	-3%
Cc1cc(NC(=O)CSc2nnc(C(C)N(C)C)n2Cc2ccccc2)no1 (configuration not stated)	>57	1%
COc1cccc(S(=O)(=O)Nc2ccc(C(=O)N3CCOCC3)cc2)c1	>57	6%
CC1CCCN(C(=O)c2ccc3c(c2)C(=O)N(CCC2=CCCCC2)C3=O)C1 (configuration not stated)	>57	?
COC(=O)c1ccc2c(c1)NC(=O)C(N1CCOCC1)S2 (configuration not stated)	>57	2%
CC(C)C[C@@H](CC(=O)N[C@H](CC(=O)N[C@@H]1CCCC[C@H]1C(=O)N[C@H](CC(=O)N[C@@H](CCC(=O)O)CC(=O)O)CC(C)C)C(C)C)NC(=O)[C@@H]1CCCC[C@H]1N	>57	?
O=C(CSc1nnc(-c2ccco2)o1)N1c2ccccc2CCc2ccccc21	>57	-14%
CC1=C(C(=O)Nc2ccc(F)cc2)C(c2ccncc2)C2=C(CCCC2=O)N1 (configuration not stated)	>57	3%

Structural class: those above with an aryl methoxy group.
Structure	Prx2 Sm inh	LT uptake inh
CCOC(=O)C1CCCN(C(=O)c2cc(Nc3ccc(OC)c(OC)c3)nc3ccccc23)C1 (configuration not stated)	>57	-12%
COc1cccc(NC(=O)c2cccnc2)c1	>57	-4%
COc1nnc(-c2ccc(N3CCOCC3)c(NC(=O)c3ccco3)c2)c2ccccc12	>57	6%
COc1cccc(S(=O)(=O)Nc2ccc(C(=O)N3CCOCC3)cc2)c1	>57	6%

Additional entries follow.
Structure	Prx2 Sm inh	LT uptake inh
C=CCOc1ccc(NC(=O)C2CC(=O)N(C(C)C)C2)cc1 (configuration not stated)	>57	2%
Cc1cccc(NC(=O)C2c3ccccc3C(=O)N3CCc4ccccc4C23)n1 (configuration not stated)	>57	-19%
Cc1cc(=O)c2ccccc2s1	>57	-1%
CCOC(=O)CN(C(=O)CSc1nnc(CNc2ccc(C)cc2C)n1CC)c1ccccc1	>57	9%
O=C1NCC(O)=C1C=NC12CC3CC(CC(C3)C1)C2	>57	0%
O=c1cc(CO)occ1O	>57	?
Nn1c(Cc2ccccc2F)nnc1SCn1nnc2ccccc2c1=O	>57	4%
Cc1ccc(OCc2nnc(SCC(=O)Nc3cc(C)on3)n2C)cc1	>57	-4%
N[C@H](C(=O)O)c1ccc(O)c(C(=O)O)c1	>57	-8%
O=c1c(O)c(-c2ccc(O)c(O)c2)oc2ccccc12	>57	?
O=C(CSc1ncc(-c2ccc(F)cc2)[nH]1)NCc1ccco1	>57	6%
CCc1nnc(NC(=O)C2CCCN2S(=O)(=O)c2ccc(C)cc2)s1 (configuration not stated)	>57	16%

Retrieved by structure from the list above (three):
Structure	Prx2 Sm inh	LT uptake inh
O=c1c2[nH]c3ccc(F)cc3c2ncn1CCCn1ccnc1	>57	-6%
CN(C)c1ccc(CN2CCCC(O)C2)cc1 (configuration not stated)	>57	-15%
OCCNCC(O)Cn1ccc2ccccc21 (configuration not stated)	>57	?

Look-ups from the list.
Cc1cccc(NC(=O)C2c3ccccc3C(=O)N3CCc4ccccc4C23)n1 (configuration not stated) | Prx2 Sm inh: >57
CCc1nnc(NC(=O)C2CCCN2S(=O)(=O)c2ccc(C)cc2)s1 (configuration not stated) | LT uptake inh: 16%

Profiles as entered above.
Cc1cc(=O)c2ccccc2s1 across the screens: Prx2 Sm inh = >57; LT uptake inh = -1%
CCc1nnc(NC(=O)C2CCCN2S(=O)(=O)c2ccc(C)cc2)s1 (configuration not stated) across the screens: Prx2 Sm inh = >57; LT uptake inh = 16%
O=c1c(O)c(-c2ccc(O)c(O)c2)oc2ccccc12 across the screens: Prx2 Sm inh = >57; LT uptake inh = ?

Compound activity deposited in PubChem BioAssay by National Center for Advancing Translational Sciences (NCATS).
